# From PubChem BioAssay
# VDR inh: Inhibitors of the vitamin D receptor (VDR): qHTS; Vitamin D3 receptor (Homo sapiens), P11473; VDR-SRC2-3 peptide fluorescence polarization, 2 h; Potency, µM, for inactives: max response, negative = inhibition, most hits filed as inhibitors; hit rate 0.93% among 400,000; active means well fitted inhibition curve with a large enough effect; inconclusive means small, poorly fitted or top-dose-only effect, or another doubt; inactive means no such curve, though single readings can be large or run the other way; further: series mostly up to about 120 µM
# Target sequence (P11473 whole entry, looked up): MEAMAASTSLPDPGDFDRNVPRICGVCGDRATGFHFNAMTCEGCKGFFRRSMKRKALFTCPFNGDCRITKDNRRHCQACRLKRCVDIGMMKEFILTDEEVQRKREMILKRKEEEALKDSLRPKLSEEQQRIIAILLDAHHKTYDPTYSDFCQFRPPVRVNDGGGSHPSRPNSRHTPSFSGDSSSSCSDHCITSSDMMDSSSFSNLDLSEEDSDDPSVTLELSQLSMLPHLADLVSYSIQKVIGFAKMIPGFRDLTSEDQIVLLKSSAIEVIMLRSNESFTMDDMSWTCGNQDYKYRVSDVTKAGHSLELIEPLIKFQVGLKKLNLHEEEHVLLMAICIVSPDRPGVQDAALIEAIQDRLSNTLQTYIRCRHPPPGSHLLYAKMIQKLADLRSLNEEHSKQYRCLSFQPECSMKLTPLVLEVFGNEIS
#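 Inhibition of the VDR/SRC2-3 peptide interaction is quantified by fluorescence polarization. Compounds (23 nl, pintool) incubate with the reagents for 2 hours at ambient room temperature.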
# * hit, by the source's call; ? = inconclusive; & = joins results of further samples; [ ] = dose if it differs, or a comment. On the % scale 0 is the no-effect control and ±100 the full control effect; potency means the concentration at half of the fitted maximal effect. A portion of the library, so the mix of outcomes need not match the whole.
SMILES,VDR inh
Clc1ccc(C(c2ccccc2)c2c[nH]c3ccccc23)s1 (stereo unspecified),-1.2%
CC(/C=C(\NC(=O)c1ccccc1)C(=O)N=Nc1c(O)[nH]c2ccc(C)cc12)=C\c1ccccc1,6.5%
O=C(NCCC(=O)N1CCN(c2ncccn2)CC1)c1ccccc1,-16.5%
COc1ccccc1CCNc1ncnc2nc[nH]c12,-8.5%
Cc1ccc(-c2n[nH]c3c2C(c2ccccc2)N(c2ccc(C(=O)O)cc2)C3=O)cc1 (stereo unspecified),-5.0%
O=C(NCCc1nc(-c2ccc(F)cc2)no1)c1ccc(F)cc1,-15.7%
NC(=O)NC(=O)COC(=O)[C@H](Cc1ccccc1)NC(=O)c1cccs1,-5.3%
COc1cc(C(=O)NC(=S)Nc2ccc3[nH]c(=O)[nH]c3c2)cc(OC)c1OC,30.8%[activator]
COc1ccc(C2CC(c3ccccc3)=NN2c2ccc(N)cc2)cc1 (stereo unspecified),-9.1%
c1coc(-c2nn3c(-c4ccco4)nnc3s2)c1,-17.2%
CCOC(=O)CSC1=C(C#N)C(c2ccc(C)cc2)C2=C(CCCC2=O)N1 (stereo unspecified),-16.0%
COc1ccc(CC(=O)NCC(c2ccc(N(C)C)cc2)N2CCOCC2)cc1OC (stereo unspecified),1.9%
COc1cccc(C(=O)NCC(=O)N/N=C/c2ccc(OC(=O)c3cccs3)c(OC)c2)c1,-7.3%
COc1ccc(Nc2ncnc3ccc(OC)cc23)cc1,9.9%
Cc1ccc(NC(=O)Cn2c(=O)cc(-c3ccccc3)c3c(C)nn(C)c32)c(Cl)c1,6.5%
CCOc1ccccc1C(=O)NC(C)CCc1ccccc1 (stereo unspecified),2.0%
CC(Cc1cccnc1)NC(=O)CCc1nnc(-c2ccccc2)o1 (stereo unspecified),-5.9%
C=C(C)c1cccc(C(C)(C)NC(=O)Nc2ccc(C)cn2)c1,-6.2%
Cn1c(N)cc(=O)[nH]c1=S,-3.1%
COCC(=O)Nc1ccc([N+](=O)[O-])cc1C,16.9%
Cc1cc2ncn(/N=C/c3cccnc3)c2cc1C,7.4%
CCOC(=O)C1(Cc2ccccc2)C(=O)Nc2ccccc21 (stereo unspecified),5.4%
Cc1ccc(NCN2C(=O)C3CC=CCC3C2=O)cc1 (stereo unspecified),7.1%
CN1C(=O)/C(=C/C=C2\SCCN2C)OC1=S,12.1%
CCOC(=O)c1cc(-c2ccco2)nc2c1c(C)nn2CCC#N,-10.3%
O=C(Nc1cccnc1)c1sc2cccc(F)c2c1Cl,-9.6%
Cc1cc(C)c2nc(-c3ccccn3)cc(C(=O)NCc3ccc(S(N)(=O)=O)cc3)c2c1,1.3%
O=C(COC(=O)C1CCN(S(=O)(=O)c2cccc3cccnc23)CC1)c1ccccc1,-4.8%
CC(C)OC(=O)CCCNc1ccc([N+](=O)[O-])cc1[N+](=O)[O-],-1.3%
CCOc1ccc(N2CC(C(=O)Nc3ccc(S(=O)(=O)N4CCOCC4)cc3)CC2=O)cc1 (stereo unspecified),-6.2%
Cc1ccc2c(c1)-c1nc(-c3ccc4c(c3)NC(=O)CO4)cc(-c3ccc(F)cc3)c1CO2,-19.1%
O=c1[nH]c2ccccc2n2c(=S)[nH]nc12,13.4%
Nc1cc2c(cc1C(=O)c1cccc(Br)c1)OCCO2,-2.1%
CC(=O)c1ccc(NC(=O)c2sc(-n3nc(C)c(Cc4ccc5c(c4)OCO5)c3C)nc2C)cc1,16.5%
COc1ccc(CN2CCNC(=O)C2CC(=O)NCCC2=CCCCC2)c(F)c1 (stereo unspecified),-5.2%
Oc1ccc(/C=N/NC(=S)Nc2cccnc2)c(O)c1O,50.1µM*
COc1ccccc1NC(=O)CCSc1nc(C)cs1,-10.9%
Cc1nc(-c2ccccn2)sc1C(=O)Nc1ccc(F)cc1,-14.2%
CC(=O)c1ccc(NC(=O)COC(=O)C2CCN(S(=O)(=O)c3cccs3)CC2)cc1,4.8%
O=Cc1c2[nH]c3ccccc3c2cc2[nH]c3ccccc3c12,-11.9%&-9.7%&11.1%

# 4 successive records already listed:
SMILES,VDR inh
COc1ccccc1NC(=O)CCSc1nc(C)cs1,-10.9%
Cc1nc(-c2ccccn2)sc1C(=O)Nc1ccc(F)cc1,-14.2%
CC(=O)c1ccc(NC(=O)COC(=O)C2CCN(S(=O)(=O)c3cccs3)CC2)cc1,4.8%
O=Cc1c2[nH]c3ccccc3c2cc2[nH]c3ccccc3c12,-11.9%&-9.7%&11.1%

# (cont.)
SMILES,VDR inh
C/C=C/Cn1c(SCc2ccc(Cl)cc2)nc2c1c(=O)[nH]c(=O)n2C,?
Cc1cc(OC(C)C(=O)NCCN2CCOCC2)c2c(C)c(C)c(=O)oc2c1 (stereo unspecified),-1.7%
COc1cccc(C2/C(=C(\O)c3ccc4c(c3)OCO4)C(=O)C(=O)N2CCN(C)C)c1OC (stereo unspecified),1.8%
O=C(NC1CC1)c1cccc(Oc2ccccc2)c1,-1.7%
Cc1c(NC(=O)c2ccc(N(C)S(=O)(=O)c3ccccc3)cc2)c(=O)n(-c2ccccc2)n1C,-4.9%
CC1(C)Cc2nc3sc(C(=O)NCCO)c(N)c3cc2CO1,-5.9%
O=C(c1ccccc1)C1O[C@H]1c1ccccc1 (stereo partly specified),2.9%
CC(=O)Nc1nc2ccccc2n1Cc1ccccc1,-10.6%
CC[C@H](C)[C@H](N)C(=O)N[C@@H](CC(N)=O)C(=O)N1CCC[C@H]1C(=O)N[C@H](C(=O)N[C@@H](Cc1ccc(O)cc1)C(=O)N[C@@H](CCCN=C(N)N)C(=O)N[C@@H](CC(C)C)C(=O)N[C@@H](CCCN=C(N)N)C(=O)N[C@@H](Cc1ccc(O)cc1)C(N)=O)[C@@H](C)CC,-0.2%
Cc1c(CNCCc2ccccc2)c(C(=O)O)c(C)n1-c1ccccc1,12.8%

# Structures listed above that bear a hit mark in VDR inh.
SMILES,VDR inh
Oc1ccc(/C=N/NC(=S)Nc2cccnc2)c(O)c1O,50.1µM*

# Additional compounds follow:
SMILES,VDR inh
O=C(CN1C(=O)NC2(CCCCC2)C1=O)Nc1cccc2ncccc12,8.7%
CC1CC1C(=O)OCC(=O)N(C)CC(=O)Nc1ccc(F)cc1 (stereo unspecified),-3.0%
NS(=O)(=O)c1ccc(CCNC(=S)Nc2ccc(F)cc2)cc1,25.1%
Cc1ccc(-n2nc(C(=O)Nc3ccc(F)cc3F)c3c4ccccc4n(C)c3c2=O)cc1,-14.6%
CC(=O)Nc1ccn(C2CC3OCC(NC(=O)C(Cc4ccccc4)NC(=O)OC(C)(C)C)C3O2)c(=O)n1 (stereo unspecified),-14.4%
COc1ccc(NC(=O)C2CCCO2)cc1OC (stereo unspecified),9.4%
C1=CC2CC1CC2CN1CCN(c2ccccc2)CC1 (stereo unspecified),1.6%
CSc1ccccc1OCc1cc(C(=O)NC2CCOC(C)(C)C2)no1 (stereo unspecified),-20.1%
CCOC(=O)C1CCN(c2cc3c(cc2NC(=O)c2ccccc2Cl)n(C)c(=O)n3C)CC1,-14.4%&-9.4%
C#CCOCCOCCOCCNc1nc(N2CCN(C(=O)[C@H](CCCCN)n3cc(CN)nn3)CC2)nc(N2CCN(C(=O)[C@H](CCC(=O)O)n3cc([C@@H](N)[C@H](C)CC)nn3)CC2)n1,1.3%
O=C(Nc1ccc(Cn2cccn2)cc1)c1ccc(COc2ccc(Br)cc2)cc1,-7.5%
COc1ccccc1-c1oc2ccccc2c1C#CCCCCO,14.7%
NC(=O)c1ccc(NC(=O)COC(=O)CC23CC4CC(CC(Br)(C4)C2)C3)cc1,7.4%
Cn1cccc1C(=O)N1CCC2(CCCN(C(=O)Nc3cccc(F)c3)C2)CC1,-1.0%
O=C(COc1ccccc1[N+](=O)[O-])NCCC1=CCCCC1,-10.5%
COc1ccc(NS(=O)(=O)c2ccc(-c3coc(C)n3)cc2)cc1OC,-22.5%
COc1ccc(NC(=O)CN(C)C(=O)c2cn(-c3ccccc3)nc2-c2cccnc2)cc1,-8.7%
CCCCN(C(=O)c1ccccc1OCc1ccc(F)cc1)c1c(N)n(CCC)c(=O)[nH]c1=O,1.0%
CC1(C)C(OC(=O)CCC(=O)O)CC[C@]2(C)C1CC[C@@]1(C)C2C(=O)C=C2[C@@H]3C[C@@](C)(C(=O)O)CC[C@]3(C)CCC21C (stereo partly specified),?
O=C(c1cccc(C(=O)N2CCN(c3ccccc3)CC2)c1)N1CCN(c2ccccc2)CC1,-7.4%
CNC(=S)Nc1cccc(S(=O)(=O)NC2=NCCC2)c1,-7.7%
CCOc1ccc(C(=O)NCC(=O)OCC(=O)N2CCCCC2)cc1,-15.5%
CCN(C(=O)CSc1nc(N)cc(=O)[nH]1)c1c(N)n(Cc2ccccc2)c(=O)[nH]c1=O,?
CN(Cc1ccccc1)C(=O)c1nc[nH]c1C(=O)N1CCc2ccccc2C1,-2.6%
CCOc1ccc(NC(=O)CN2CCN(CC(=O)Nc3ccc(OC)cc3OC)CC2)cc1,10.8%
Cc1occc1-c1n[nH]c(=S)n1-c1ccccc1,-16.1%
CC(C(=O)Nc1ccc(C#N)cc1)N1CCN(C(=O)C2CC2)CC1 (stereo unspecified),-6.9%
CCN(CC(O)COc1ccc(OCC(O)CN(CC)C2CCCCC2)cc1)C1CCCCC1 (stereo unspecified),-18.6%
Cn1c(=O)[nH]c(=O)c2c1nc(N1CCNCC1)n2Cc1ccccc1,-26.5%
O=c1[nH]c(C2CCN(S(=O)(=O)c3ccccc3)CC2)nc2c1nnn2Cc1ccccc1,-29.6%
CCn1ccc(C(=O)Oc2ccc(Cl)cc2)n1,-13.4%
COc1ccc(CC(=O)N2CCc3cc(OC)c(OC)cc3C2COc2cc(C)cc(C)c2)cc1OC (stereo unspecified),14.1%
Cc1ccc2c(C)c(C(=O)N3CCCC(C(N)=O)C3)oc2c1C (stereo unspecified),8.9%
CNC(CC(C)C)C(=O)NC1C(=O)NC(CC(N)=O)C(=O)NC2C(=O)NC3C(=O)NC(C(=O)NC(C(=O)O)c4cc(O)cc(O)c4-c4cc3ccc4O)C(O)c3ccc(c(Cl)c3)Oc3cc2cc(c3OC2OC(CO)C(O)C(O)C2OC2C[C@](C)(N)C(O)C(C)O2)Oc2ccc(cc2Cl)C1O (stereo partly specified),6.3%
COc1ccc(C(=O)N(Cc2ccco2)Cc2cccs2)c(O)c1,4.4%&2.9%
O=C(COC(=O)c1ccccc1NS(=O)(=O)c1ccc(Cl)cc1)NCc1ccccc1,-16.0%
Cc1cccc(CNC(=O)c2ccc(NC(=O)N3CCSc4ncccc43)cc2)c1,5.2%
COc1ccc(-c2nc(CS(=O)CC(=O)NCc3ccc(F)cc3)c(C)o2)cc1 (stereo unspecified),-21.7%
CCN(CC)S(=O)(=O)c1ccc(NC(=O)c2nn(C)c3c2CSc2ccccc2-3)cc1,-0.9%
Cc1ccc(NC(=O)CO/N=C/c2ccccc2C)c(C)c1,2.9%

# Filtered by structure: those above with an aryl thioether with sulfur outside any ring (four)
SMILES,VDR inh
COc1ccccc1NC(=O)CCSc1nc(C)cs1,-10.9%
C/C=C/Cn1c(SCc2ccc(Cl)cc2)nc2c1c(=O)[nH]c(=O)n2C,?
CSc1ccccc1OCc1cc(C(=O)NC2CCOC(C)(C)C2)no1 (stereo unspecified),-20.1%
CCN(C(=O)CSc1nc(N)cc(=O)[nH]1)c1c(N)n(Cc2ccccc2)c(=O)[nH]c1=O,?

# Next section:
SMILES,VDR inh
CC(=O)NC(Cc1c[nH]c2ccccc12)C(=O)N1CCc2ccccc2C1 (stereo unspecified),0.9%
Fc1ccc(Nc2ccc(-c3ccc(F)cc3)nn2)cc1,-23.2%
Cc1cc(C)cc(Oc2nn[nH]n2)c1,-4.4%
CCN(CC)C(=O)COc1coc(CN2CCN(c3ccccc3F)CC2)cc1=O,19.2%
CCOc1ncccc1C(=O)NNC(=O)c1cccc(S(=O)(=O)Nc2ccc(OC)cc2)c1,-9.4%
CCOC(=O)c1c(C)[nH]c(C(=O)CSc2nnnn2-c2ccc(C)cc2)c1C,24.1%
COC(=O)c1ccc(COc2ccc(CNCc3ccc(Cl)cc3)cc2)cc1,-0.8%
CCCC(C)C(=O)Nc1cccc(NC(C)=O)c1 (stereo unspecified),-0.9%
Cc1ccc(NC(=O)N2CCCC2C(=O)NCc2ccccc2Cl)cc1 (stereo unspecified),-19.8%
COc1cccc(C2CNC3(CCCC(C)C3)c3[nH]c4ccccc4c32)c1OC (stereo unspecified),2.3%
Cc1ccc(C(=O)N2CCC(n3nccc3NC(=O)c3ccccc3C)CC2)cn1,2.9%
CC(C)NC(=S)N/N=C/c1cc(Br)ccc1O,-16.2%
O=C(Nc1nc(-c2ccco2)c(-c2ccco2)s1)C1CC(=O)N(c2ccc3c(c2)OCCO3)C1 (stereo unspecified),?
O=C(CCc1ccccc1)NNC(=O)C12CC3CC(CC(C3)C1)C2,-4.3%
C=CCNc1nc(N)c([N+](=O)[O-])c(Nc2ccccc2OC)n1,4.7%
CC(C)c1ccccc1NC(=O)COc1ccc(C(=O)NCCc2ccccc2)cc1,-1.0%
NS(=O)(=O)c1ccc(-c2ccc(/C=C3\SC(=O)NC3=O)o2)cc1,-4.3%
CCC1(c2ccccc2)NC(=O)N(CC#N)C1=O (stereo unspecified),12.6%
Cc1cc(C)c(C)c(S(=O)(=O)NCC(=O)Nc2sc3c(c2C(N)=O)CCCC3)c1C,11.1%
CCc1ccc(Nc2cc(=O)n(C3CCCCC3)c(=O)[nH]2)cc1,4.8%
O=C(Nc1ccccc1OC(F)F)c1ccc(S(=O)(=O)N2CCOCC2)cc1,7.6%
CCCNC(=S)N1CCC(NC(=O)c2ccc(C)cc2)CC1,-2.6%
COc1ccc(C(=O)NCc2nnc(SCC(=O)NC3=NCCS3)n2C)cc1,2.9%
O=C(CSc1oc(-c2ccccc2)nc1S(=O)(=O)c1ccccc1)c1ccccc1,2.0%
Cc1cccc(C2N(c3ccc(F)cc3)C(=O)C3CCCN32)c1 (stereo unspecified),-16.9%
